# CBX7 AlphaScr: CBX7 inhibition, primary AlphaScreen; AID 1224903; 66,000 compounds, 1.1% hits; AlphaScreen His6-CBX7 / biotin-H3K27me3 peptide binding; stronger effect = lower value; O95931; normalised signal (fraction of DMSO) (test concentration not listed); in the data active = normalised signal below about 0.5;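 note: 100 nL library stock added to about 20 µL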
# Target sequence (O95931 whole entry, looked up): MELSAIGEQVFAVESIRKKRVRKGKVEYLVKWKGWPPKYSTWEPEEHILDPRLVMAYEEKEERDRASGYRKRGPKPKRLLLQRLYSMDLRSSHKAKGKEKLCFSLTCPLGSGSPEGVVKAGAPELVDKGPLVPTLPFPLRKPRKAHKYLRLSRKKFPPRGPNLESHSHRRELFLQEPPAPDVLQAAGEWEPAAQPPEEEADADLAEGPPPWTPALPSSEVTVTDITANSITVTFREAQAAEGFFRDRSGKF
# CBX7 AlphaScr z-score: recorded beside CBX7 AlphaScr, whose call it bears; z-score; measured here: z-score of CBX7 signal; some inactives read as strong as hits; reference of the scale not given here;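 same signal on another scale; lower means less binding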
# An asterisk follows results filed as active; & = joins results of further samples.
SMILES,CBX7 AlphaScr,CBX7 AlphaScr z-score
CCC(=O)N1c2ccc(S(=O)(=O)NCCN3CCC(C)CC3)cc2CC1C (stereo not drawn),0.99,-0.17
Cc1ccc2c(c1)c(-c1ccccc1)c(-c1ccccc1)n2CC(O)CN1CCOCC1 (stereo not drawn),0.89,-1.2
O=C(CN1CCCCCC1)Nc1c2c(nc3c1CCC3)CCCC2,0.074*,-12*
Cc1ccc(S(=O)(=O)N2CC=C(C(=O)Nc3ccccc3F)CC2)cc1,1.2,2.5
CC(CNC(=O)Cn1cc2c(n1)CCCC2)c1ccccc1 (stereo not drawn),1,0.58
Cc1ccc(NC(=O)c2cnn(-c3ccc(F)cc3)c2C2CCNCC2)cc1C,0.96,-0.83
Cc1cc(C)n(Cc2cccc(F)c2)c(=O)c1C#N,1.2,2
Cc1ccc(C2CC(C(F)(F)F)n3ncc(C(=O)Nc4cccc(C(C)O)c4)c3N2)cc1 (stereo not drawn),0.91,-0.093
CCC(C)NC(=O)c1ccc2c(c1)N=C(C)c1cc(Br)ccc1S2 (stereo not drawn),0.98,-0.46
O=C(CSc1nc(Nc2ccc3c(c2)OCO3)c2ccccc2n1)c1ccc(F)cc1,0.78,-0.62
COc1ccc(C2CC(c3cccc(Br)c3)Nc3ncnn32)c(OC)c1 (stereo not drawn),1,-0.017
COCCN1Cc2cccc(C(=O)NCCc3ccccc3)c2C1=O,0.99,-0.0087
COc1ccc2nc(NC(=O)c3cnc(Nc4ccc(C)c(Cl)c4)c4ccccc34)sc2c1,1.5,13
CCOc1ccc(CCNC(=O)CC2Oc3ccccc3NC2=O)cc1OCC (stereo not drawn),1.1,0.62
O=C(Nc1cccc(-c2cnc3ccccc3n2)c1)c1ccc(OCc2ccccc2)cc1,0.97,-0.4
CN1CCN(C2CC(=O)N(c3ccc(F)cc3)C2=O)CC1 (stereo not drawn),0.77,-2.2
COC(=O)CNC(c1ccccc1)c1cc(C)ccc1NS(=O)(=O)c1ccc(C)cc1 (stereo not drawn),1,-0.048
CCc1ccc(CN(C(=O)COc2ccc(Cl)c(C)c2)C2CCS(=O)(=O)C2)cc1 (stereo not drawn),0.82,-0.18
Cc1ccc2c(c1)NC(=O)C(CC(=O)NCc1ccc(F)cc1)O2 (stereo not drawn),1,1.6
COC(CN1C(=O)Cn2cccc2C1C(=O)NC1CCC(C)CC1)OC (stereo not drawn),1,0.17
COc1ccc2c(c1)Cc1sc(NC(=O)c3cccc(F)c3)nc1-2,1.1,1.1
COc1ccc(-c2cc(C(N)=O)c3ccccc3n2)cc1,0.97,-0.35
CC1CCCCN1CCNC(=O)c1ccc2c(c1)NC(=O)CS2 (stereo not drawn),1.1,1.1
Cc1ccsc1-c1nc(CSCC(=O)NCc2cccnc2)c(C)o1,1.2,3.2
Cc1ccc(Nc2ncc(C(=O)N3CCC(C)CC3)c3ccccc23)cc1Cl,1.2,6.4
C=CCn1c(SCCC(=O)O)nnc1-c1cccnc1,1.1,0.53
Cc1nn(-c2ccccc2)c(Cl)c1C(=O)Nc1cccc(Cl)c1C,1,0.047
O=C(Nc1c2c(nn1-c1ccc(F)cc1)CSC2)c1cccc(F)c1,1,0.38
CCCCn1cnc2cc(NCc3ccc(Br)cc3)ccc21,0.25*,-21*
O=C1CSC(c2ccccn2)N1c1ccc(Cl)cn1 (stereo not drawn),1,0.43
Cc1cc(C)cc(OCC(=O)Nc2nc(-c3ccccc3)cs2)c1,1.1,0.095
COc1ccc(O)c(-c2cc(-c3ccc(C)cc3)n[nH]2)c1,0.86&0.69,-2.3&-7.8
CCN(C(=O)Cn1nc(Cc2cccnc2)c2ccccc2c1=O)c1ccccc1,0.95,-1.7
CC1CCCCC1NC(=O)C1c2cccn2CC(=O)N1Cc1cccs1 (stereo not drawn),1.1,1
Cc1onc(-c2ccccc2Cl)c1C(=O)NC1CCS(=O)(=O)C1 (stereo not drawn),1.1,0.79
Cc1oc(-c2ccc(Cl)cc2)nc1CN1CCC(C(=O)NCCN(C)Cc2ccccc2)CC1,1.8,6.7
Cc1nc(NCc2ccccc2)c2c3c(sc2n1)CCCC3,0.84,-0.21
Cc1ccc(-c2nnc(NCc3ccccc3)c3ccccc23)cc1S(=O)(=O)N1CCN(C)CC1,0.65,-0.41
Cc1ccc(NC(=O)c2c(-c3c(F)cccc3Cl)noc2C)cc1F,1.3,2.9
CCCCN(C)S(=O)(=O)c1ccc(C(=O)Nc2nnc(COC)o2)cc1,0.089*,-1.6*
CCCOc1ccc(N2C(=O)CC(N3CCN(c4ccccc4OC)CC3)C2=O)cc1 (stereo not drawn),1.1,1.7
Cc1nc2nc[nH]n2c(=O)c1Cc1ccccc1,0.85,-1.8
CCOc1ccc(Nc2cc(C(=O)NC3CCCCCC3)c3ccccc3n2)cc1,1,0.81
CS(=O)(=O)c1ccc2sc(NC(=O)c3cc4ccccc4o3)nc2c1,1.2,1.9
COc1ccc(NC(=O)CN2CC(c3ccccc3)CC2=O)cc1OC (stereo not drawn),1,0.051
COc1ccc(CNC(=O)CCc2nc(-c3ccc(C)cc3)no2)cc1,1,0.74
O=C(O)CCCC(=O)N1CCc2cc(S(=O)(=O)NCc3ccc(F)cc3)ccc21,1.3,1.9
CC(=O)Nc1ccc(Nc2nc(-c3sc(C)nc3C)cs2)cc1,0.86,-2.7
Cc1ccc(Cn2cc(CCC(=O)NC3CCCCCC3)c3ccccc32)cc1,0.86,-1.1
O=C(NCCc1ccccc1)C1(S(=O)(=O)c2ccc(Cl)cc2)CC1,1,1

# The listing continues.
SMILES,CBX7 AlphaScr,CBX7 AlphaScr z-score
CN(CC(=O)NCCc1ccc(Cl)cc1)S(=O)(=O)c1cnc[nH]1,1,0.98
COc1ccc(CC(=O)NCCc2cc3ccc(C)cc3[nH]c2=O)cc1OC,0.93,-0.84
Cc1ccc(C)c(CN2C(=O)C(C(C)C(=O)NCc3ccc(Cl)c(Cl)c3)Sc3ccccc32)c1 (stereo not drawn),0.82,-5
COc1ccc2nc(NC(=O)c3ccccc3NS(=O)(=O)c3ccc(C)cc3)sc2c1,0.81,-3.2
Cc1cccc(C)c1NC1c2ccccc2C(=O)N1c1ccc(Cl)cc1 (stereo not drawn),1,0.27
CCN(CC)CCNC(=O)CN1C(=O)CC(C)(C)Sc2ccccc21,0.97,-0.74
COc1ccc(-c2csc(N3CCC(C)CC3)n2)cc1,0.82,-5
Cc1cccc(NC(=O)CC2Nc3ccccc3NC2=O)c1C (stereo not drawn),1,0.45
COc1cccc(-c2cn3nc(C)c(C)nc3n2)c1,1.2,2.4
O=C(CCN1N=C(c2ccccc2)CCC1=O)NCc1ccc(F)cc1,1.1,0.29
O=C(CN1C(=O)c2ccccc2S1(=O)=O)Nc1ccc(Br)cc1F,1.2,1.5
CCC1CCCCN1CCCNC(=O)CC1Oc2ccccc2NC1=O (stereo not drawn),1.2,1.4
Cc1ccc(C)c(CN2C(=O)CSc3ccc(C(=O)NCCN(C)C)cc32)c1,1.1,2.7
COc1ccc(NC(=O)CCc2c(C)nc3cc(-c4ccc(Cl)cc4)nn3c2C)cc1,1.1,2
Cc1ccc(C)c(CN2C(=O)CSc3ccc(C(=O)N4CCC5(CC4)OCCO5)cc32)c1,0.86,-3.1
CCC1Oc2ccccc2N(CC(=O)NCCN2CCc3ccccc3C2)C1=O (stereo not drawn),1.1,2.5
CC(c1ccccc1)N1CCC(CNC(=O)Nc2ccccc2)C1 (stereo not drawn),0.97,-0.85
Clc1ccc(OCc2nc(-c3ccc(Br)cc3)no2)cc1,1.1,2.1
Clc1cc(Cl)c2[nH]c3c(c2c1)CCc1nonc1-3,1,1.1
CC(C)c1ccc(Nc2c(-c3ccc(N4CCOCC4)cc3)nc3ncccn23)cc1,1,0.17

# Another view of some results above:
# The line under a structure holds: CBX7 AlphaScr	CBX7 AlphaScr z-score
> CCC1CCCCN1CCCNC(=O)CC1Oc2ccccc2NC1=O (stereo not drawn)
 : 1.2	1.4
> CC(c1ccccc1)N1CCC(CNC(=O)Nc2ccccc2)C1 (stereo not drawn)
 : 0.97	-0.85
> Clc1cc(Cl)c2[nH]c3c(c2c1)CCc1nonc1-3
 : 1	1.1
> O=C(CN1C(=O)c2ccccc2S1(=O)=O)Nc1ccc(Br)cc1F
 : 1.2	1.5

# Next part:
SMILES,CBX7 AlphaScr,CBX7 AlphaScr z-score
Cc1ccc(NC(=O)C(Cc2ccccc2)NS(=O)(=O)c2ccc3c(c2)CCC(=O)N3)c(C)c1 (stereo not drawn),1.2,3.9
CCN1CCN(c2cc(C)c3cc(NC(=O)C4COc5ccccc5O4)ccc3n2)CC1 (stereo not drawn),0.94,-0.38
COc1cccc(-c2cc(C(=O)Nc3c(F)cc(F)cc3Br)no2)c1,1.1,0.53
COc1ccccc1Nc1cc(C)nc2nnnn12,0.96,-0.57
Cc1cccc(-n2c(C)nc3cc(C(=O)NC4CCCCCC4)ccc32)c1,0.83,-3
CCN1CCN(CCCNC(=O)c2cc(=O)[nH]c3ccc(S(=O)(=O)N4CCCC4)cc23)CC1,1.1,0.84
COc1ccc(OC)c(S(=O)(=O)NCCc2c(C)[nH]c3ccc(F)cc23)c1,1,0.12
O=C(CN1CCN(Cc2ccc(F)cc2)C1=O)NCC1CCCO1 (stereo not drawn),0.85,-2.2
CCOC(=O)c1cc(-c2ccc(OC)cc2)n(CCC(=O)NCc2ccc(C)cc2)c1C,0.97,-0.64
CCC(=O)N1CCc2cc(Br)cc(S(=O)(=O)NCCc3ccccc3)c21,1,1.2
Cc1nn(Cc2ccccc2)c(C)c1NC(=O)c1cc(-c2ccc(Cl)c(Cl)c2)on1,0.88,-1.3
CC(C(=O)O)N1C(=O)CCSc2ccccc21 (stereo not drawn),0.99,-0.27
COCCCNC(=O)C1CCCN(C(=O)c2cnn(-c3ccccc3)c2-n2cccc2)C1 (stereo not drawn),1,1.5
Cc1nn(Cc2c(Cl)cccc2Cl)c(C)c1NC(=O)c1cc(-c2ccc3c(c2)OCO3)on1,1,0.36
O=C(NC1CCCCCC1)C1CCCN1S(=O)(=O)c1cccc2cccnc12 (stereo not drawn),1,-0.13
CCOc1ccc(-c2nn3c(-c4ccccc4)nnc3s2)cc1,1,1.2
CCOCCCNc1nc(-c2ccc(Cl)cc2)nc2ccccc12,1.3,8.9
CC(=O)Nc1c(C(=O)c2ccc(F)cc2)oc2ccccc12,0.98,-0.49
Cc1ccc(N2CCN(C(=O)C3CCN(c4ccc(N5CCOCC5)nn4)CC3)CC2)c(C)c1,1,0.21
Cc1ccc(NC(=O)CN(C)S(=O)(=O)c2cnc[nH]2)cc1C,1.1,1.1

# An excerpt of these results, with values under each structure.
# Order of values: CBX7 AlphaScr, CBX7 AlphaScr z-score
- CC(C(=O)O)N1C(=O)CCSc2ccccc21 (stereo not drawn)
 : 0.99, -0.27
- CCOc1ccc(-c2nn3c(-c4ccccc4)nnc3s2)cc1
 : 1, 1.2
- Cc1ccc(NC(=O)CN(C)S(=O)(=O)c2cnc[nH]2)cc1C
 : 1.1, 1.1
- CCOCCCNc1nc(-c2ccc(Cl)cc2)nc2ccccc12
 : 1.3, 8.9
- COCCCNC(=O)C1CCCN(C(=O)c2cnn(-c3ccccc3)c2-n2cccc2)C1 (stereo not drawn)
 : 1, 1.5
- O=C(NC1CCCCCC1)C1CCCN1S(=O)(=O)c1cccc2cccnc12 (stereo not drawn)
 : 1, -0.13

# Continuation:
SMILES,CBX7 AlphaScr,CBX7 AlphaScr z-score
CCSc1oc(-c2ccc(F)cc2)nc1S(=O)(=O)c1ccccc1,1,1.1
Cc1ccc(-c2nnc(Nc3ccc4c(c3)OCO4)c3ccccc23)cc1S(=O)(=O)N1CCCCC1,0.82,-2
O=C1C2C3C=CC(CO)(O3)C2C(=O)N1c1cccc(Br)c1 (stereo not drawn),0.97,-0.45
Cc1ccc(-c2nnc(SCC(=O)Nc3nccs3)o2)cc1,1.4,0.92
COc1ccc(-c2cc(C(=O)Nc3cnn(Cc4ccc(F)cc4)c3)no2)cc1OC,1.1,1.4
CCC1CCCCN1S(=O)(=O)c1ccc(C(=O)Nc2nnc(-c3cccc(OC)c3)o2)cc1 (stereo not drawn),0.91,-2
Cc1cccc(N(C)S(=O)(=O)c2ccc3c(c2)CCN3C(=O)CCC(=O)O)c1,0.97,-0.96
CC1(C)CC(=O)C2=C(C1)NC(=O)CC2c1ccc(Br)cc1 (stereo not drawn),1.1,1.2
CCC1=Nc2cc(C(=O)N3CCOCC3)ccc2Sc2ccc(Br)cc21,0.9,-5
COc1ccccc1Nc1nc(-c2ccc(Cl)c(Cl)c2)cs1,0.98,-0.62

# Sorted by molecular weight (ascending): 6 of the compounds above.
SMILES,CBX7 AlphaScr,CBX7 AlphaScr z-score
COc1ccc(-c2cc(C(N)=O)c3ccccc3n2)cc1,0.97,-0.35
COc1ccc(NC(=O)CN2CC(c3ccccc3)CC2=O)cc1OC (stereo not drawn),1,0.051
Cc1ccc(Cn2cc(CCC(=O)NC3CCCCCC3)c3ccccc32)cc1,0.86,-1.1
Cc1ccc(Nc2ncc(C(=O)N3CCC(C)CC3)c3ccccc23)cc1Cl,1.2,6.4
CCN(C(=O)Cn1nc(Cc2cccnc2)c2ccccc2c1=O)c1ccccc1,0.95,-1.7
Cc1nn(Cc2ccccc2)c(C)c1NC(=O)c1cc(-c2ccc(Cl)c(Cl)c2)on1,0.88,-1.3

# (further entries)
SMILES,CBX7 AlphaScr,CBX7 AlphaScr z-score
Cc1ccc(Cc2c(C)nc3nc(SCC(=O)Nc4ccc(C)cc4)nn3c2C)cc1,1.2,1.6
O=c1cc(Cc2nnc(SCc3cccc(Cl)c3)n2-c2ccccc2)[nH]c(=O)[nH]1,1,-0.15
CCOc1ccccc1NC(=O)c1c(NCc2cccc(OC)c2OC)sc2c1CCCC2,0.93,-3.7
COc1ccc(C(=O)Nc2ncc(Cc3ccc(C)cc3)s2)cc1OC,0.9,-0.18
Cc1cc(C)n(-c2ncc(-c3ccccc3)nn2)n1,1,0.62
COc1cccc(-n2ccnc2SCC(=O)NCc2ccc(F)cc2)c1,0.95,-0.95
CCOc1ccc2c(c1)c(=O)c(C(=O)c1ccc3c(c1)OCO3)cn2Cc1ccccc1,0.67,-1.2
CCCOc1cccc(C(=O)Nc2cccc(-c3nc4ncccc4o3)c2)c1,1.1,2.9
Cc1cccc(N2CCN(C(=O)c3ccc4c(c3)C(=O)N(CCC3=CCCCC3)C4=O)CC2C)c1 (stereo not drawn),0.74,-6.5

# Only part of the results is shown (hit frequency here may not be typical).
